Screening data: PubChem BioAssay, National Center for Advancing Translational Sciences (NCATS)
nsP2pro inh – inhibitors of chikungunya virus nsP2 protease; Q8JUX6; FRET peptide cleavage, nsP2pro, fluorescence 1 h; Potency, µM (doses to about 24.9 µM), for the others: top-dose activity change, negative = inhibition, actives largely listed as inhibitors; 31,000 tested, 1.1% active; active means well fitted inhibition curve with a large enough effect; inconclusive means small, poorly fitted or top-dose-only effect; inactive means no such curve, though single readings can be large or run the other way; note: nearly all actives have a fitted effect of over 60% in size; a reference inhibitor and vehicle were the controls
The depositor's hits bear a star; i = inactive; u = inconclusive; & = joins results of further samples; [ ] = remark or other dose. % is set by controls: 0 for no effect and ±100 for the full control effect; potency is the fitted concentration of half-maximal effect. Not all compounds are listed, so the mix of outcomes need not match the whole.

SMILES | nsP2pro inh
Cc1c(C(=O)N2CCCC2)oc2c1-c1nn(CC(=O)NC(C)c3ccccc3)cc1CC2 (configuration not stated) | -25%
COc1ccccc1NC(=O)Cn1c(=O)n(CCCCCC(=O)NCc2ccccc2)c(=O)c2sccc21 | -20%
COc1cc(F)c(S(=O)(=O)N2CCCN(S(=O)(=O)c3ccc(N)cc3)CC2)c(F)c1 | -6%
CC(=O)Nc1ccccc1-c1nc2ccccc2n(C(C)C(=O)Nc2cccc(C)c2C)c1=O (configuration not stated) | -22%
O=C(O)c1cn(-c2ccc(F)cc2)c2cc(N3CCNCC3)c(F)cc2c1=O | 3%[10 µM]
O=C(Cc1cccc(OC(F)(F)F)c1)Nc1ccc(CCCCc2nnc(NC(=O)Cc3ccccn3)s2)nn1 | 22%&47%
CCc1nc2c(NC(=O)c3ccc(F)c(Cl)c3)cccn2n1 | i
O=[S+]1([O-])NCC2(CCN(Cc3ccccn3)C2)Nc2ccccc21 (configuration not stated) | -6%
Fc1cc(F)cc(Nc2nc(Cl)nc(NC3CCCC3)n2)c1 | -6%
COc1cccc(C(=O)N2CCCN(CCn3nc4n(c3=O)CCCC4)CC2)c1 | -3%
O=C(CC1CCOCC1)N1CCN(c2ncccn2)CC1 | i
COC(=O)c1nc(NC(=O)CC[C@H]2NC(=O)c3ccccc3NC2=O)sc1C | i
CC(=O)Nc1sc2c(c1-c1ccc(-c3nn[nH]n3)cc1)CCNC2 | i
C=C1CC[C@@H]2[C@](C)(CO[C@@H]3O[C@H](CO)[C@@H](O)[C@H](O)[C@H]3O)[C@H](O)CC[C@@]2(C)[C@@H]1C/C=C1/C(=O)OC[C@H]1O | -21%[10 µM]
COc1ccc(NC(=O)CN2C(=O)COc3ccc(S(=O)(=O)Nc4ccccc4)cc32)cc1OC | -16%
CCN1CCC[C@@H]1CNC(=O)c1ccc2c(c1)NC(=O)/C(=C/c1ccccc1F)S2 | 5%
C[C@@H]1CN(Cc2cc(C(N)=O)oc2C(C)(C)C)CC[C@@]1(O)C1CCC1 | -3%
CCN1CCN(C(=O)C2Cn3cccc3C(=O)N2C)CC1 (configuration not stated) | -4%
Cc1cc(F)ccc1S(=O)(=O)Nc1cc2c(C(=O)O)c(C)oc2c2ccccc12 | -25%
CN(C)c1nc(-c2ccncc2)nc2c1CCN(C(=O)c1cc(=O)[nH][nH]1)C2 | i
Cc1ccc(OCC(=O)N(Cc2ccc(Cl)cc2)Cc2ccco2)cc1C | -26%
CN(C(=O)c1nn(C)c2c1CS(=O)(=O)c1ccccc1-2)c1cccc(Cl)c1 | -14%
CCN1CCN(CC(O)COc2cccc(CNCc3cnn(CC)c3)c2)CC1 (configuration not stated) | i
COc1cc(OC)c(/C=C2\C(=O)Nc3ccccc32)c(OC)c1 | 3%
COc1ccccc1-c1[nH]nc2ncc(C(=O)NCC3CC3)nc12 | i
CC(=O)N1Cc2ccccc2OC2(CCN(C(=O)N(C)C)CC2)C1 | -15%
CN(C)C[C@@H]1CN(C)C[C@H]1NC(=O)NCc1ccc(OC(F)(F)F)cc1 | 0%
Cc1cccc(NC(=O)c2ccc(F)c(S(=O)(=O)N3CCC4(CC3)OCCO4)c2)c1 | -9%
C/C=C(\C)C(=O)OCC1OC(OC2OC(CO)C(O)C(O)C2O)C(O)C(O)C1O (configuration not stated) | -9%[10 µM]
c1ccc(-c2nc(CC3CCCNC3)no2)nc1 (configuration not stated) | 0%
O=C(NO)c1cccc(C(=O)NCCc2ccccc2)c1 | -8%
CN(Cc1ccccc1)C(C(=O)NC1CCCCC1)c1ccc(Cl)cc1 (configuration not stated) | -30%
CCCC(=O)O[C@@H]1[C@@H]2[C@@H](OC(C)=O)[C@]3(C)C(=O)[C@H]4[C@@H](OC(C)=O)C(C)(C)C[C@H]4[C@]3(C)C(=O)[C@@]2(OC(C)=O)C[C@@H]1C | -8%[10 µM]
Cc1nn(C)c(C)c1CNC(=O)C1CC(=O)N(c2n[nH]c3cccc(F)c23)C1 (configuration not stated) | 1%
Cc1ccc(Nc2ccnc(N3CCCN([S+](=O)([O-])c4ccc(C)cc4)C3)n2)cc1 | -4%
CC1Oc2ccc(NC(=O)CC(C)(C)C)cc2CN(CCc2ccccc2)C1=O (configuration not stated) | 3%
O=C1CCCC2=C1C1(CCCC1)N=C(Nc1nc3ccccc3n1Cc1ccccc1)N2 | i
CCn1nccc1C(=O)N1CCC(Nc2nccnc2OC)CC1 | -3%
Cc1cc(C)cc(NC(=O)CSc2oc(-c3ccccc3)nc2S(=O)(=O)c2ccc(Cl)cc2)c1 | u
Cc1ccc(CNc2ccc(N3CCN(C)CC3=O)cc2)cc1 | 0%
Cc1c(C(=O)N2CCC(C)CC2)c(S(=O)(=O)N2CCN(c3ccc(Cl)cc3)CC2)c(C)n1C | -18%
Cc1cc(-c2nnc3n2CCCCC3)c(C)n1-c1ccc(C(C)(C)C)cc1 | i
COC(C)c1nc(C2CCOCC2)nn1Cc1ccc2c(c1)OCO2 (configuration not stated) | i
Cc1ccc(-c2cc(N)n3nc(-c4ccc(C)cc4)cc3n2)cc1 | -14%
CCc1c(C)sc2c1CCN(Cc1ccccc1F)C2c1ccccc1 (configuration not stated) | -15%

Grouped by structure: the entries above containing an aryl methoxy group (7)
SMILES | nsP2pro inh
COc1ccccc1NC(=O)Cn1c(=O)n(CCCCCC(=O)NCc2ccccc2)c(=O)c2sccc21 | -20%
COc1cc(F)c(S(=O)(=O)N2CCCN(S(=O)(=O)c3ccc(N)cc3)CC2)c(F)c1 | -6%
COc1cccc(C(=O)N2CCCN(CCn3nc4n(c3=O)CCCC4)CC2)c1 | -3%
COc1ccc(NC(=O)CN2C(=O)COc3ccc(S(=O)(=O)Nc4ccccc4)cc32)cc1OC | -16%
COc1cc(OC)c(/C=C2\C(=O)Nc3ccccc32)c(OC)c1 | 3%
COc1ccccc1-c1[nH]nc2ncc(C(=O)NCC3CC3)nc12 | i
CCn1nccc1C(=O)N1CCC(Nc2nccnc2OC)CC1 | -3%

Next structures follow:
SMILES | nsP2pro inh
COc1cc(NC(=O)CC(C)S(=O)(=O)c2cc3c4c(c2)CCN4C(=O)CC3)cc(OC)c1 (configuration not stated) | -8%
O=C1NC(=O)/C(=C/c2ccc3c(c2)OC(F)(F)O3)S1 | -6%
O=C(O)C1C2C(=O)N(c3ccccc3)C[C@@]23C=C[C@@H]1O3 (some centres not stated) | 3%
CC1=C(C(=O)N2CCCCC2)C(c2ccc(Cl)cc2)n2c(nc3ccccc32)N1 (configuration not stated) | -2%
C[C@@H]1O[C@@H](O[C@H]2[C@@H](OC(=O)[C@]34CCC(C)(C)CC3C3=CCC5[C@@]6(C)C[C@H](O)[C@H](O[C@@H]7O[C@H](C(=O)O)[C@@H](O)[C@H](O)[C@H]7O)[C@@](C)(C(=O)O)C6CC[C@@]5(C)[C@]3(C)CC4)OC[C@H](O)[C@@H]2O)[C@H](O)[C@H](O)[C@H]1O[C@@H]1OC[C@@H](O)[C@H](O)[C@H]1O (some centres not stated) | -1%[5.1 µM]
Cc1cnc(-c2ccccc2C(C)C)nc1NCC1CCN(C2COC2)CC1 | -8%
O=c1cc(CN2CCOCC2)occ1OCCCCCSc1ccnc2cc(C(F)(F)F)ccc12 | -22%&-23%
C=C(C(=O)O)[C@H]1C[C@]2(C)C(=O)CC[C@]23O[C@H]1C[C@@H]3C | 0%
CC1CC(=O)C2=C(CCC3(O)C(O)c4c(O)cccc4C(=O)C23O)C1 (configuration not stated) | -7%
O=C1c2[nH]nc(-c3ccccc3O)c2C(c2cccc(OCc3ccccc3)c2)N1CCCO (configuration not stated) | -8%
CC1=C[C@H]2O[C@@H]3[C@H](O)[C@@H](O)[C@](C)([C@@]2(CO)C[C@@H]1O)[C@]31CO1 | u
CC(C)c1ccc(CN2CCC(CNS(=O)(=O)C3CC3)C2)cc1 (configuration not stated) | i
C[C@H]1C[C@@H]2[C@H]([C@@H](O)C[C@@]3(C)[C@H]2CC[C@]3(O)C(=O)COC(=O)CCC(=O)O)[C@@]2(C)C=CC(=O)C=C12 | -1%
NC(=O)NC1N=C([O][Al])NC1=O (configuration not stated) | -3%
Cc1nc(N2CCC(NCCc3n[nH]c(=O)[nH]3)CC2)c2ccsc2n1 | 0%

Structures above that have a tert-butyl group, in the order listed:
SMILES | nsP2pro inh
C[C@@H]1CN(Cc2cc(C(N)=O)oc2C(C)(C)C)CC[C@@]1(O)C1CCC1 | -3%
CC1Oc2ccc(NC(=O)CC(C)(C)C)cc2CN(CCc2ccccc2)C1=O (configuration not stated) | 3%
Cc1cc(-c2nnc3n2CCCCC3)c(C)n1-c1ccc(C(C)(C)C)cc1 | i

(more compounds)
SMILES | nsP2pro inh
O=C1COc2ccc(-c3ccoc3)nc2CN1Cc1ccc(C(F)(F)F)cc1 | u
CC(=O)C1CCC2C3CC=C4CC(O)CCC4(C)C3CCC12C (configuration not stated) | -25%
COC[C@H]1C[C@@H](NC2CCN(C(C)=O)CC2)[C@H](O)[C@@H]1O | -3%[39.2 µM]
O=C(OCC#CCSc1nnc(-c2cccc3ccccc23)o1)c1sc2ccccc2c1Cl | 1%
COc1ccc(S(=O)(=O)N(C(=O)c2ccncc2)c2ccc3oc(C)c(C(C)=O)c3c2)cc1 | -6%
O=C(NCc1cccs1)c1cc(C2CC2)nc2onc(C3CCCNC3)c12 (configuration not stated) | -7%
CCNc1ncc(C(=O)N[C@H](c2cnn(C)c2)C2CC(O)C2)cn1 (some centres not stated) | i
Cc1ccc(-n2ncc3c(=O)n(Cc4cccc(C(F)(F)F)c4)cnc32)cc1C | -16%
COc1cc(F)cc(F)c1[S+](=O)([O-])N1CCN([S+](=O)([O-])c2ccc3c(c2)OCCO3)CC1 | i
COc1ccc(C2c3c(N)nc(CCc4ccccc4)nc3Oc3ccc4ccccc4c32)cc1OC (configuration not stated) | -25%
CCOc1ccc(C(c2c(O)cc(C)n(CCOC)c2=O)N2CCN(c3ccccc3F)CC2)cc1 (configuration not stated) | 13µM*
Cc1cnc(C2CCC2)n1CC1CCN(C(=O)COCc2ccccc2)C1 (configuration not stated) | -3%
Cc1ccccc1-c1noc(-c2cccnc2N(C)Cc2ccc(Cl)cc2)n1 | -21%
COc1ccc2cc1Oc1cc3c(cc1OC)CC[N+](C)(C)[C@H]3Cc1ccc(cc1)Oc1c(OC)c(OC)cc3c1[C@@H](C2)[N+](C)(C)CC3 | -4%
Cc1cccc(-n2cnc3cc(C(=O)N4CCC(Br)CC4)ccc32)c1 | -9%
Cc1ccc(C)c(NC(=O)CCc2c(C)n(C)c3cc(-c4ccccc4C)nn3c2=O)c1 | -19%
CC1(C)[C@H](C(=O)O)N2C(=O)C[C@H]2S1(=O)=O | -13%&0%
COc1ccc(N(CC(=O)N2CCN(c3ccc(F)cc3)CC2)S(=O)(=O)c2c(C)n[nH]c2C)cc1 | -11%
C=C(CO)C12OC1C1(C)C(=CC2=O)C(O)C(O)CC1C (configuration not stated) | -8%
CN1CCCCCCN(C(=O)c2ccc3ccccc3n2)[C@H]2CCC[C@H]2C1=O | 3%
CC1(C)CC(NC(=O)C(=O)Nc2ccc(Cl)cc2)CC(C)(C)N1 | -3%&-2%
CN[C@@H]1[C@@H](O)[C@@H](O[C@@H]2[C@@H](O)[C@H](O[C@H]3O[C@H]([C@@H](C)NC)CC[C@H]3N)[C@@H](N)C[C@H]2N)OC[C@]1(C)O | -4%
O=C1CCCC2=C1C(c1cccc(Oc3ccccc3)c1)N=C(Nc1nc3ccccc3o1)N2 (configuration not stated) | i
COc1ccc(Cl)cc1NC(=O)Cn1c(=O)n(-c2ccc(C)cc2)c(=O)c2ccc(C(=O)NCc3ccccc3Cl)cc21 | -15%
CN(C)CCCNc1c2ccccc2nc2c1[nH]c1ccccc12 | 12%
OCC(CO[C@@H]1O[C@H](CO)[C@@H](O)[C@H](O)[C@H]1O)c1ccc2c(c1)OCO2 (some centres not stated) | 20%
C[C@H]1CC[C@@H]2[C@@H](C)[C@H]3[C@H](C[C@H]4[C@@H]5CC=C6CC(O[C@@H]7O[C@H](CO)[C@@H](O)[C@H](O[C@@H]8O[C@H](CO)[C@@H](O)[C@H](O)[C@H]8O)[C@@H]7O[C@@H]7O[C@@H](C)[C@H](O)[C@@H](O)[C@H]7O)CC[C@]6(C)[C@H]5CC[C@]34C)N2C1 (some centres not stated) | u
CC1CCC23COC(=O)C2=CC(O)CC3C1(C)CCc1ccoc1 (configuration not stated) | 1%
Cc1nn(CCC#N)c(C)c1[C@@H]1C=C[C@@H](NS(=O)(=O)c2cccs2)C1 | u
O=C(Nc1ccc(Br)c(Br)c1)Nc1cccc(-c2ccncc2)n1 | -6%
CC(c1ccc(-c2cc(N3CCN(C)CC3)nc(N)n2)cc1)N1CCOCC1 (configuration not stated) | i
Cn1nc(C(=O)N2CCN(c3ccccc3)CC2)c2c1-c1ccccc1SC2 | -21%
CC(C)CN1CCN(C(=O)CC2CCN(S(C)(=O)=O)C2)CC1 (configuration not stated) | 0%
Clc1ccc(-c2noc3ncnc(NCCCN4CCN(c5ccccc5)CC4)c23)cc1 | -11%
CN1CCCn2nc(C(=O)N(C)Cc3nc4ccc(Cl)cc4[nH]3)cc2C1 | i
C=C1C(=O)O[C@H]2C1CCC(C)=C1C(=O)C=C(C)[C@@]12O (some centres not stated) | 45%
Cc1cncc(CN2CCC(=C3c4ccc(Cl)cc4CCc4cccnc43)CC2)c1 | 21%
COc1ccc(/C=C/C(N)=O)cc1OC | -6%
COC(=O)C1C(CC(C)=O)C=CC(O)C12Oc1cc(C)cc(O)c1C2=O (configuration not stated) | -2%
